# Bioassay records from PubChem BioAssay.
# VDR inhibitor: Inhibitors of the vitamin D receptor (VDR): qHTS | Vitamin D3 receptor (Homo sapiens), P11473 | VDR-SRC2-3 peptide fluorescence polarization, 2 h | AID 504847, 2011 | 0.93% of 400,000 active | Potency, µM, without a hit: max response, negative = inhibition, usual class: inhibitors; active = well fitted inhibition curve with a large enough effect; inconclusive = small, poorly fitted or top-dose-only effect, or another doubt; inactive = no such curve, though single readings can be large or run the other way; note: series mostly up to about 120 µM
# Target sequence (P11473 whole entry, looked up): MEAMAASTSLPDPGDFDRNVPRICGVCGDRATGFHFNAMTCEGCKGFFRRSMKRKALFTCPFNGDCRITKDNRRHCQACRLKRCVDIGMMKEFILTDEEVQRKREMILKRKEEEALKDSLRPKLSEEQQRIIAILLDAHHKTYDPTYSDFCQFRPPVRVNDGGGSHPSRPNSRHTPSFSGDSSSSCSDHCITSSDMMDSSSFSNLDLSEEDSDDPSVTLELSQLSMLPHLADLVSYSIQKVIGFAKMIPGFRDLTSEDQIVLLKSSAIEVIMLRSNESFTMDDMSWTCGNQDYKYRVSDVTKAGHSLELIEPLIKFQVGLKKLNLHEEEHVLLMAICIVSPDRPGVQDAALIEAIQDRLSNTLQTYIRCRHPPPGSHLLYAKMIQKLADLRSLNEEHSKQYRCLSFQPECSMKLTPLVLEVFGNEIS
#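 After 23 nl compound addition and a short centrifugation, plates sat for 2 hours at ambient temperature; polarization of fluorescence then indicated loss of VDR binding to peptide SRC2-3.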
# Numbers without * were called inactive; ? = inconclusive; & = joins results of further samples; [ ] = dose if it differs, or a comment. % is set by controls: 0 for no effect and ±100 for the full control effect; potency is the fitted concentration of half-maximal effect. This is a subset; rates above refer to the full screens.
Compound | VDR inhibitor
CC1=NN(c2ccc(Br)cc2)C(=O)/C1=C/c1ccc(-c2ccccc2C(=O)O)o1 | ?
O=S1(=O)CCO[C@H]2Cc3ccccc3[C@H]2N1Cc1cccc(C(F)(F)F)c1 | -7.7%
O=C(c1ccccc1)[C@H]1CC=CC[C@H]1C(=O)O | 9.4%
N/C(=N\OC(=O)Cc1ccccc1)c1ccccn1 | -5.3%
CCc1cccc(C)c1NC(=O)CN(C)S(=O)(=O)c1ccc(-c2ccc(=O)[nH]n2)s1 | 2.1%
COc1ccc(/C=C/C(=O)NCC(=O)N/N=C(/C)c2ccc(Cl)cc2)cc1 | 0.1%
CCCOC(=O)c1ccc(NC(=O)Cc2cccs2)cc1 | 17.1%
Cn1c(=O)c2c(SCC(=O)N3CCCc4ccccc43)nc(CC(C)(C)C)nc2n(C)c1=O | 11.9%
Cc1ccc2nc(N3CCN(c4ccccc4)CC3)c3nnnn3c2c1 | 5.2%
COc1ccc(Cc2nnc(-c3ccc(F)cc3)o2)cc1OC | -5.7%
CCN1CCN(c2ccc(S(=O)(=O)N3CCCCC3)cc2NC(=O)CC(C)c2ccccc2)CC1 (stereo not given) | -13.5%
COC(=O)c1sc2nc(C)nc(SCC(=O)Nc3sccc3C(N)=O)c2c1C | -15.1%
O=C(Nc1cccc(C(F)(F)F)c1)NC1CCN(S(=O)(=O)c2ccc(F)cc2)CC1 | -9.1%
O=C1C2C3C=CC(C4CC34)C2C(=O)N1/N=C/c1ccc(-c2ccccc2[N+](=O)[O-])o1 (stereo not given) | 25.1%
COc1cccc(-c2nnc(SCC(=O)Nc3cc(C)on3)n2C)c1 | 0.7%

# Structures listed so far that contain an aryl thioether with sulfur outside any ring, in the order listed:
Compound | VDR inhibitor
Cn1c(=O)c2c(SCC(=O)N3CCCc4ccccc43)nc(CC(C)(C)C)nc2n(C)c1=O | 11.9%
COC(=O)c1sc2nc(C)nc(SCC(=O)Nc3sccc3C(N)=O)c2c1C | -15.1%
COc1cccc(-c2nnc(SCC(=O)Nc3cc(C)on3)n2C)c1 | 0.7%

# More records follow.
Compound | VDR inhibitor
CCOc1ccc(/C=C2\SC(=S)N(CC(=O)NCCCN3CCOCC3)C2=O)cc1 | 3.8%
COCC(C)n1c(SCc2nc3ccccc3c(=O)[nH]2)nc2ccccc2c1=O (stereo not given) | -9.8%
CC1(C)Cc2nc3[nH]c(=S)n(-c4ccccc4)c(=O)c3cc2CO1 | 17.3%
CCN(CC)S(=O)(=O)c1ccc(N2CCCC2)c(NS(=O)(=O)c2ccccc2)c1 | -8.6%
COc1ccc(NC(=O)COC(=O)CNS(=O)(=O)c2ccccc2)cc1OC | -10.2%
CCSc1nc2ccccc2n1Cc1ccccc1F | -5.1%
CCOC(=O)C(=O)NCC(c1ccco1)S(=O)(=O)c1cccs1 (stereo not given) | 15.3%
CCN(CC(=O)Nc1c(F)cccc1F)C(=O)Cc1csc(-c2ccccc2)n1 | -6.0%
CCN(Cc1cc2ccccc2[nH]c1=O)C(=O)c1cccc([N+](=O)[O-])c1 | -7.0%
CCCC[n+]1ccn(-c2nc3ccccc3nc2[N-]S(=O)(=O)c2ccc(Br)cc2)c1 | 11.7%
O=C(/C=C/c1cn(-c2ccccc2)nc1-c1cccnc1)NCCN1CCOCC1 | -8.1%
Cc1cc(NC(=O)CSc2nc3c(C)cccc3cc2C#N)no1 | 12.8%
Cn1c(NCc2ccccc2)nc2c1c(=O)n(Cc1ccccc1)c(=O)n2C | 0.2%
CCCn1c(SCC(=O)c2c[nH]c3ccccc23)nnc1-c1ccncc1 | -4.9%
Cc1nc(S(=O)(=O)c2ccc(Cl)cc2)c(NCc2ccccc2)o1 | -9.3%

Compound | VDR inhibitor
Fc1cccc(Cn2cc(C(=S)N3CCCCC3)c3ccccc32)c1 | 2.1%
COc1ccc(NS(=O)(=O)c2ccc(OCC(=O)N3CCOCC3)cc2)cc1 | 9.3%
COC(=O)C1N2C(=O)[C@@H](NC(=O)COc3ccccc3)[C@H]2SC1(C)C (stereo not given in full) | 7.4%
CCCCN(C(=O)COC(=O)CSc1cc(C)c2ccccc2n1)c1c(N)n(CCC)c(=O)[nH]c1=O | 7.8%
Oc1oc(C=Nc2ccc(F)cc2F)c2ccccc12 | -10.9%
CC(C)C(=O)NS(=O)(=O)c1ccc(N)cc1 | 2.5%
Cc1ccc(NC(=O)C2CCCN2S(=O)(=O)c2ccc3nc(-c4ccccc4)[nH]c3c2)cc1C (stereo not given) | 3.3%
Cc1ccnc(NC(=O)COc2ccc3oc4c(c3c2)CCCC4)c1 | -1.2%
Cc1ccc(C)c(N2CCN(C(=O)CCc3nc(-c4ccccc4C(F)(F)F)no3)CC2)c1 | -7.7%
COC(=O)c1nn(-c2ccccc2)c2nnc(Cc3ccc(C)cc3)c(=O)n12 | -10.2%
CCOc1ccc(-n2c(=O)c3sccc3n(CC(=O)NC3CCCCC3)c2=O)cc1 | -4.2%
S=C(NCc1ccco1)Nc1ccccn1 | -0.9%
CC1(C)CC(=O)C2=C(C1)Oc1ncn(Cc3ccco3)c(=N)c1C2c1ccccc1 (stereo not given) | 2.0%
COc1ccccc1N1CCN(C(=O)c2cc(CC(C)C)on2)CC1 | 11.6%
COC(=O)c1ccsc1NC(=O)CN1CCN(Cc2ccc3c(c2)OCO3)CC1 | -7.9%

# Part of the list above, with values ahead of the structure.
VDR inhibitor,Molecule
2.5%,CC(C)C(=O)NS(=O)(=O)c1ccc(N)cc1
-8.6%,CCN(CC)S(=O)(=O)c1ccc(N2CCCC2)c(NS(=O)(=O)c2ccccc2)c1
-9.1%,O=C(Nc1cccc(C(F)(F)F)c1)NC1CCN(S(=O)(=O)c2ccc(F)cc2)CC1
7.8%,CCCCN(C(=O)COC(=O)CSc1cc(C)c2ccccc2n1)c1c(N)n(CCC)c(=O)[nH]c1=O

# The listing continues.
Compound | VDR inhibitor
CC1CN(C(=O)CCN2C(=O)c3ccccc3C2=O)CC(C)O1 (stereo not given) | 30.6%[activator]
CNC(=S)NNC(=O)c1sccc1OCc1ccccc1 | 0.8%
CC(=O)Nc1ccc(NC(=S)NC(=O)c2ccc([N+](=O)[O-])cc2)cc1 | ?
CCO[C@H]1OC(C(=O)NC2CC2)=C[C@@H](c2c[nH]c3ccccc23)[C@@H]1CCCO | 8.3%
O=S(=O)(c1cccc(-c2nnc3n2CCCCC3)c1)N1CCOCC1 | 1.3%
CCCn1c2ccccc2c2cnn(CC(=O)N3CCCC(C)C3)c(=O)c21 (stereo not given) | 6.3%
COc1ccc(CCNC(=O)CSc2ncnc3c2oc2ccccc23)cc1OC | 3.4%
CO[C@]1(NC(=O)CSCC#N)C(=O)N2C(C(=O)O)=C(CSc3nnnn3C)CS[C@H]21 | ?
CCOC(=O)c1c(NC(=O)COC(=O)c2ccccc2NC)sc(C(=O)N(C)C)c1C | 16.7%
CCOC(=O)C1=C(O)C(=O)N(c2ccc(S(N)(=O)=O)cc2)C1c1ccccc1 (stereo not given) | -12.1%
COc1ccccc1N1CCN(CC(=O)Nc2ccccc2C(=O)NC(C)c2ccccc2)CC1 (stereo not given) | -16.3%
Cc1ccc(NC(=O)Cn2c(CCC(=O)O)ccc2-c2cccs2)cc1Cl | 1.9%&4.5%
CSC1=C(C#N)C(CC(C)C)C2=C(CCCC2=O)N1 (stereo not given) | 13.3%
O=C(NCCCCCCNC(=O)OCCO)OCCO | 6.6%
CCC(=O)Nc1nnc(SCc2cc(=O)c3cc(C)ccc3[nH]2)s1 | 6.4%

Compound | VDR inhibitor
Cc1ccc(SCC(=O)NC(C)c2ccccc2)cc1 (stereo not given) | -4.3%
Cc1cccc(C)c1NC(=O)C[n+]1cc(-c2ccccc2)n2c1CCC2 | 1.6%
COc1ccccc1NC(=O)Cn1c(=O)c(CNc2ccccc2)cc2cc(OC)c(OC)cc21 | -3.2%
CC(C)(C)OC(=O)N(CCc1ccccc1)Cc1ccccc1OCc1cccc(NC(=O)C2CC2)c1 | 1.2%
COC(=O)N1CCC2(CC1)CCN(c1cccc(-c3ccccc3)c1)CC2 | -21.7%
CCOC(=O)c1cccc(NC(=O)CCc2c(C)nc3c4cccnc4nn3c2C)c1 | ?
Cc1ccc(C2(c3noc(CN4CCOCC4)n3)CCCC2)cc1 | 2.1%
CC(N)(C(=O)O)c1ccc(S(=O)(=O)O)cc1 (stereo not given) | 9.0%
Cc1ccc(-n2[nH]c(C)c(C=Nc3ccc4[nH]c(=O)[nH]c4c3)c2=O)cc1C | -3.4%
CCOC(=O)c1[nH]ncc1CN1CCCC(C(=O)c2cc(Cl)ccc2OC)C1 (stereo not given) | -7.2%
Cc1ccc(Nc2n[nH]c(C)c2[N+](=O)[O-])cc1 | -13.7%
CC(C)Cn1c(SCC#N)nc2ccccc2c1=O | -1.7%&-8.2%
CCOC(=O)N1CCC2(CC1)OC(=O)C(C)=C2C(=O)NCc1cccc(F)c1 | -1.3%
CC(=O)Nc1ccc(NS(=O)(=O)c2c(C)nc3sccn3c2=O)cc1 | 2.2%
CC(C)(C)N(NC(=O)OCc1ccccc1)C(=O)c1ccccc1Cl | -14.9%

Compound | VDR inhibitor
Cc1ccc(CCNC(=O)C2COc3ccccc3C2)cc1 (stereo not given) | 6.3%
CCN(CC)c1cc(Cl)nc(N)n1 | -4.2%
Cc1cccc(C(=S)N2CCOCC2)n1 | -6.2%
CC1CN(C2CCCCC2)C(=S)NC1=O (stereo not given) | -0.5%
Cc1ccc([N+](=O)[O-])cc1S(=O)(=O)Nc1ccc(C(=O)N2CCN(C(=O)c3ccco3)CC2)cc1 | -1.4%
COc1ccc(S(=O)(=O)N2CCN(CC(=O)Nc3cccc(F)c3)CC2)cc1 | -4.6%
Cn1c(NNC(=O)c2ccccc2F)cc(=O)n(C)c1=O | -14.9%
CCCCc1nc2cc(C(=O)NCc3cn(C)nc3C)ccc2o1 | -2.2%
CCc1ccc(NC(=O)C(=O)N/N=C(\C)CC(=O)NCCOC)cc1 | -6.3%
CC(=O)c1ccc(C(=O)N2CCc3c([nH]c4ccccc34)C2c2cccc(C)n2)s1 (stereo not given) | 16.6%
Cc1onc(-c2c(F)cccc2Cl)c1C(=O)NCc1ccc(S(N)(=O)=O)cc1 | 3.6%
O=C(CC1CCCC1)NCCc1cn2ccccc2n1 | -6.4%
NS(=O)(=O)c1cccnc1Nc1c(Cl)cccc1Cl | -4.8%
O=C(O)c1[nH]c2ccc(Br)cc2c1CCN1C(=O)c2cccc([N+](=O)[O-])c2C1=O | -25.1%
Cc1ccc(NC(=O)C2CCN(C(=O)[C@@H]3Cc4ccccc4CN3)CC2)c(C)c1 | 9.7%

Compound | VDR inhibitor
Cc1ccc(CSCCC(=O)NCc2ccc(F)cc2Cl)cc1 | -8.4%
CCCSc1ncc(Cl)c(C(=O)Nc2scc(-c3ccc(C)cc3)c2C(=O)OCC)n1 | 4.5%
COc1ccc(CC(=O)N2CCN(c3ccccc3F)CC2)cc1OC | -2.8%
Cc1ccc(NC(=O)Nc2cnccn2)c(C)c1 | 17.4%
CCCc1cc(=O)oc2cc(OCC(=O)N3CCOCC3)c(Cl)cc12 | 11.6%
C#CCOCCOCCOCCNc1nc(N2CCN(C(=O)C([C@@H](C)CC)n3cc(C(N)Cc4ccc(O)cc4)nn3)CC2)nc(N2CCN(C(=O)[C@H](CCC(=O)O)n3cc(C(N)Cc4ccc(O)cc4)nn3)CC2)n1 (stereo not given in full) | 6.7%
O=c1oc(-c2ccc([N+](=O)[O-])cc2)nc2ccc(O)cc12 | -20.6%
Cc1c(C2(O)CCCCC2)[nH]c2ccc(C(F)(F)F)cc12 | -9.0%
COc1ccc(NC(=O)CN2CCc3ccccc3C2)cc1 | -0.3%
COc1cc(C(=O)Nc2nnc(SCC(=O)NCC3CCCO3)s2)cc(OC)c1OC (stereo not given) | -7.8%
Cc1ccc(S(=O)(=O)N2CCC(C(=O)OCc3c(C)noc3C)CC2)cc1C | -10.9%
Cc1csc(NC(=O)C2CCCN(S(=O)(=O)c3ccc(Br)s3)C2)n1 (stereo not given) | 10.6%
Cc1cc(=O)n(CC=C(Cl)Cl)c2ccccc12 | 15.9%
CC1=C(C(=O)OC2CCCC2)C(c2ccccc2Cl)CC(=O)N1 (stereo not given) | -16.1%
CCc1ccccc1N(C)C(=O)C1CCCN(c2ncnc3c2nc2n3CCCCC2)C1 (stereo not given) | 15.6%

Compound | VDR inhibitor
Cc1cc(NS(=O)(=O)c2ccc(NC(=O)C(CC(C)C)N3C(=O)c4ccccc4C3=O)cc2)nc(C)n1 (stereo not given) | 21.5%
CCN(CC)CC(=O)Nc1ccc(C)cc1Br | 4.6%
CCC(C)(C)NC(=O)Nc1cc(Cl)ccc1OC | -6.0%
CCOC(=O)C1=C(N)OC2=C(C(=O)CC(C)(C)C2)C1c1ccccc1OCC#N (stereo not given) | -20.3%
Cn1c(=O)cc(N2CCCCC2)[nH]c1=O | -3.3%
O=C(CCN1C(=O)c2ccccc2C1=O)Nc1ccc(S(=O)(=O)NC2=NCCCCC2)cc1 | -5.2%
Cc1ccccc1NC(=O)Nc1ccc(C(F)(F)F)cc1 | -8.0%
COCCCNC(=O)C(=O)NC1CCCCCC1 | 2.2%
Cc1ccc(C2C(C#N)=C(N)N(c3cccnc3)C3=C2C(=O)CCC3)s1 (stereo not given) | 8.5%
CCOc1ccc(OCC)c(NS(=O)(=O)c2c(C)[nH]c(=O)[nH]c2=O)c1 | 12.5%
COc1ccc(/C(C)=N/NC(=O)CNC(=O)C(c2ccccc2)c2ccccc2)c(OC)c1 | -2.0%
CCCOc1cccc(C2C(C(=O)c3ccco3)=C(O)C(=O)N2CCN(CC)CC)c1 (stereo not given) | 12.6%
COc1ccccc1NC(=O)CON=C(N)CC(=O)NC1CCCCC1 | 20.1%
